Screening data from PubChem.
TRPV1 PAM: HTS Assay for Compounds that Act as Potentiators of the Vanilloid Receptor 1; Transient receptor potential cation channel subfamily V member 1 (Homo sapiens), Q8NER1; TRPV1-expressing cells, Fluo-8 calcium influx, capsaicin EC20 potentiation; host cell line not named in the record; control for the full effect not named in the record; potentiation, % at 8.33 µM; 320,000 compounds, 0.02% hits; AID 540277, 2011; active means potentiation above 80%; inconclusive means 30% to 80%; inactive means below 30%; further: 0% is about no effect
Target sequence (Q8NER1 whole entry, looked up): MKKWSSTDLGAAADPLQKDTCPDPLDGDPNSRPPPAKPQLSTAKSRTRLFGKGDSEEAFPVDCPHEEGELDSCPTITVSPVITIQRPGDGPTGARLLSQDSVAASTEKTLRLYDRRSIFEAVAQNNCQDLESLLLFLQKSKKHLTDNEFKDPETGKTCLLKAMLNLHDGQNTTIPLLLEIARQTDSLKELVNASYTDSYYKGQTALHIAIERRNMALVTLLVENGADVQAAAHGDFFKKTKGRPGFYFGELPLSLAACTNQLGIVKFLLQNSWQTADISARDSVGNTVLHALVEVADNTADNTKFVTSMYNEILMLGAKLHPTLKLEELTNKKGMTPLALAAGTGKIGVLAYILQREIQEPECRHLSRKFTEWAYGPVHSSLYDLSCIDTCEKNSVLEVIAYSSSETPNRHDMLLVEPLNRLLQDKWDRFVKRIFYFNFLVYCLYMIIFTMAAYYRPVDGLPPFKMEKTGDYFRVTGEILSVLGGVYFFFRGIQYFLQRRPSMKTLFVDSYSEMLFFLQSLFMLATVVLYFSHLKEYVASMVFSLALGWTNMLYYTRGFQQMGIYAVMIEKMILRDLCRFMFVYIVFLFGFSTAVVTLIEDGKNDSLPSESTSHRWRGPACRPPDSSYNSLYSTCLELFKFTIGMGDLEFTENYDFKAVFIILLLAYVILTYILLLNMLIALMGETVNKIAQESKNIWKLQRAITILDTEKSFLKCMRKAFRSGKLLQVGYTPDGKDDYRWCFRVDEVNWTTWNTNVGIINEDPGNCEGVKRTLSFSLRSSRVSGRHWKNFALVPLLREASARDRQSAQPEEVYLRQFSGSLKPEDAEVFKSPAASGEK
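Fluo-8 calcium influx in TRPV1-expressing cells, kinetic read (ex 480/em 520 nm). Compound added and read 3 min for agonist activity, followed by capsaicin at EC20 final and 2 min further read for enhancement.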
ClpP mod: qHTS Assay for Activators of ClpP. 340,000 compounds, 1.9% hits. purified B. subtilis ClpP, FRET peptide cleavage, 20 min. Potency, µM (highest dose often 57.5 µM), without a hit: at the highest dose activity change, negative = active. AID 651965, 2013. ATP-dependent Clp protease proteolytic subunit (Bacillus subtilis (strain 168)), P80244; active = well fitted falling curve with a large enough effect; inconclusive = small, poorly fitted or top-dose-only effect; inactive = no such curve, though single readings can be large or run the other way; further: potency means the concentration at half of the fitted maximal effect; the source files actives as falling curves though it sought activators and does not explain the sign; nearly all actives have a fitted effect of over 65% in size; many hits overshoot -100%
Target sequence (P80244 whole entry, looked up): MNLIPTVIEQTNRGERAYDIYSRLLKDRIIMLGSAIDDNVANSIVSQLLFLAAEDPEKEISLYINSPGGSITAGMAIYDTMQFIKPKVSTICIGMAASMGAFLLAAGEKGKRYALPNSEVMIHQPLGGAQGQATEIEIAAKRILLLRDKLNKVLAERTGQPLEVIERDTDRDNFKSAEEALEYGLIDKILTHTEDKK
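Buffer: 100 mM Tris/HCl pH8, 100 mM KCl, 0.05% low protease BSA, 2.5% glycerol, 0.01% Tween-20. ClpP 10 microg/mL final; 20 min RT; delta FRET normalized to ADEP and DMSO controls.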
Menin-MLL FL inh: qHTS Assay for Inhibitors Targeting the Menin-MLL Interaction in MLL Related Leukemias: Competition With Fluorescein Labeled MLL-derived Peptide. Fluorescence polarization, fluorescein-MLL peptide displacement from menin. FP activity change, % at 61.4 µM. 290,000 tested, under 10 active. AID 1766, 2009; inconclusive = falling polarisation curve, or a change in total fluorescence; inactive = total fluorescence flat and polarisation flat or rising; no compound was filed as active; the % refers to the polarisation; negative = inhibition;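 further: % of control where 0% means no effect; inhibitors lower the polarisation; unlabelled MLL peptide was the positive control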
gsp antagonist: qHTS for Antagonists of gsp, the Etiologic Mutation Responsible for Fibrous Dysplasia/McCune-Albright Syndrome: qHTS. gsp-mutant cells, cAMP HTRF, 30 min; control for the full effect not named in the record. Potency, µM (top dose mostly 76.9 µM), for the others: at the top dose activity change, negative = inhibition, most hits filed as inhibitors. AID 624288, 2012. 340,000 compounds, 0.4% hits; active = falling curve of any shape with a large fitted effect; inconclusive = falling curve, mostly with a smaller effect; inactive = flat or rising curve; cell line not stated here;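 further: intracellular cAMP measured with PDE inhibitor Ro 20-1724 present during compound exposure; potency means the concentration at half of the fitted maximal effect; on the % scale 0 is the no-effect control and ±100 the full control effect; nearly all actives have a fitted effect of over 65% in size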
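HTRF cAMP read-out (cAMP-d2 plus anti-cAMP antibody-K in lysis buffer, 30 min RT). Before lysis, cells are exposed to compounds with […] for 30 min at 37C in DPBS containing Ca/Mg, BSA and Tween 20.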
gsp agonist: qHTS for Agonist of gsp, the Etiologic Mutation Responsible for Fibrous Dysplasia/McCune-Albright Syndrome: qHTS | 340,000 compounds, 0.13% hits | Potency, µM (titrated, usually from 76.9 µM), for the others: at the top dose activation (cAMP increase), actives largely listed as activators | gsp mutant cells, cAMP HTRF, 30 min; control for the full effect not named in the record; active = well fitted activation curve with a large enough effect; inconclusive = small, poorly fitted or top-dose-only effect, or another doubt; inactive = no such curve, though single readings can be large or run the other way; cell line not stated here;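 further: phosphodiesterase inhibitor Ro 20-1724 added with compounds to block cAMP breakdown; potency means the concentration at half of the fitted maximal effect; nearly all actives have a fitted effect of over 60% in size; about a fifth of the inactives were tested at one dose only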
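Cells stably selected in G418 were plated at 2000/well, grown 16-24 hr, then given compounds in DMSO with the PDE inhibitor […] (300 uM solution added) for 30 min at 37C; cAMP was read by HTRF.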
CtBP-E1A inh: qHTS Assay for Inhibitors of the CtBP/E1A Interaction; activity change, % (test concentration not listed); 340,000 compounds, 0.49% hits; AlphaScreen GST-E1A/His-CtBP binding, 1536-well; hits give low values; control for the full effect not named in the record; in the data active means activity change below about -65%; inconclusive means about -30% to -65%; inactive means above about -30%; further: on the % scale 0 is the no-effect control and ±100 the full control effect
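In 5 uL wells, 23 nL compound meets equimolar GST-E1A and His-CtBP (5X stock 125 nM each) for 2 h, 37 °C. Beads (5X, 50 ug/mL) then 1 h, 37 °C, dark.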
Sfp PPTase inh: qHTS Assay for Inhibitors of Bacillus subtilis Sfp phosphopantetheinyl transferase (PPTase) | 4'-phosphopantetheinyl transferase ffp (Bacillus subtilis), Q9F4F7 | Biochemical Sfp PPTase activity, qHTS | Potency, µM, for the others: max response, negative = inhibition, most hits filed as inhibitors | 310,000 compounds, 3.5% hits | AID 1490, 2009; active means well fitted inhibition curve with a large enough effect; inconclusive means small, poorly fitted or top-dose-only effect, or another doubt; inactive means no such curve, though single readings can be large or run the other way;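 further: the enzyme is Sfp with the accession as filed and its product quenches rhodamine fluorescence; potency means the concentration at half of the fitted maximal effect; 0% = enzyme reaction without inhibitor and -100% = no enzyme wells; top concentration of the series not given in the record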
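Sfp 15 nM + cpd, 15 min RT; start w/ rhodamine-CoA 5 uM, BHQ-2-YbbR 12.5 uM (final); 50 mM Hepes pH 7.6, 10 mM MgCl2, 0.01% NP-40, 0.01% BSA; read 525/598 nm at 0 and 30 min.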
* = called active by the depositor; ? = inconclusive; · = no result given; & = joins results of further samples; [ ] = dose if it differs, or a comment.

SMILES	TRPV1 PAM	ClpP mod	Menin-MLL FL inh	gsp antagonist	gsp agonist	CtBP-E1A inh	Sfp PPTase inh
Cc1cccc(NC(=O)c2nc[nH]c2C(=O)NC[C@@H](C)O)c1	·	1.8%	·	·	?	-1.3	·
C=CCn1c(C)csc1=Nc1ccccc1C	-0.2	-2.2%	0.7	2.2%	-4.6%[15.4 µM]	6.6	16.7%
Cc1cccc(N2CCN(C(=O)C3CCN(S(=O)(=O)c4cnc[nH]4)CC3)CC2)c1C	14.8	0.7%	4.4	-1.7%	?	0.2	7.0%
CCS(=O)(=O)N1CCN(Cc2ccccc2OC)CC1	3.6	-1.9%	-0.4	4.6%	2.8%	-12.2	28.2µM*
Cc1nnc(SCC(=O)NC(C)(C)C)n1NCc1cccc(Br)c1	-7.3	·	-0.2	8.0%	2.2%	-5.5	6.3%
COc1ccc(C(=O)COC(=O)COc2ccc(C)c(C)c2)cc1	-8.2	-3.2%	-1.2	5.3%	-2.8%[15.4 µM]	5.0	-1.5%
CC1=NN(C(N)=S)C(=O)C1N=Nc1ccccc1O (centres undefined)	-0.1	0.1%	9.9	-7.4%	-0.4%	·	9.6%
CC(C)(C)OC(=O)C(C)(C)O/N=C(\C(=O)O)c1csc(N)n1	14.2	1.0%	-1.7	6.5%	-38.3%	5.9	-14.3%
Cc1cccc(-n2nnnc2SCC(=O)NCC2CCCO2)c1 (centres undefined)	-0.8	-2.9%	-0.5	13.9%	4.9%	-10.3	2.5%
Cn1c(N)c(C(=O)COC(=O)C2CC(=O)N(Cc3ccccc3)C2)c(=O)n(C)c1=O (centres undefined)	8.9	·	2.0	1.3%	5.7%	-0.7	-7.1%
CC1CCCN(C(=O)c2nn(C)c3c2CSc2ccccc2-3)C1 (centres undefined)	3.8	-2.0%	-0.3	6.3%	-47.4%	-20.0	44.7µM*
COc1ccc(NS(=O)(=O)c2cccc(C(=O)NNC(=O)CNC(=O)c3ccccc3F)c2)cc1	13.3	-20.7%	·	7.1%	-63.5%[inhibitor]	3.0	·
Cc1ccc(-n2c3c(cc(C(=O)NC4CCSC4=O)c2=O)C(=O)CCC3)cc1 (centres undefined)	1.7	?	5.1	?	-18.6%	2.2	10.0%
CCC(=O)N=c1sc2cc([N+](=O)[O-])ccc2n1CCOC	8.8	-19.9%	9.6	-0.9%	-22.7%	2.1	4.7%
O=C(Oc1c(Cl)cc(Cl)c2cccnc12)c1cccs1	-1.1	3.7%	1.0	-18.8%	18.6%	-81.7*	12.8%
CCOc1ccc(CCNC(=O)c2ccc(CS(=O)Cc3cccc(Cl)c3)o2)cc1 (centres undefined)	-13.2	0.8%&2.1%	3.6	-16.4%	-15.0%	0.3	19.2%
Cc1cccc(NC(=O)CSc2ccc(-c3ccc4c(c3)OCO4)nn2)c1C	13.3	0.9%	-1.0	14.8%	0.0%	5.1	-10.5%
CCOC(=O)CNC(=O)c1c(C)nn(-c2ccccc2)c1Cl	11.7	0.4%	7.7	10.0%	-4.0%	-15.0	14.9%
Fc1ccc(NC(=S)NCCN2CCOCC2)c(F)c1F	0.5	·	-0.3	6.0%	-16.8%[15.4 µM]	7.1	-27.9%
CCOC(=O)CC(NC(C)=O)c1ccc([N+](=O)[O-])cc1 (centres undefined)	-0.4	-0.7%	5.7	5.5%	-4.7%	8.3	7.6%
CC1C(=O)Nc2ccc(S(=O)(=O)NCc3ccc(Cl)cc3)cc2NC1=O (centres undefined)	3.0	-1.9%	1.5	1.2%	5.6%	-18.8	12.5%
CC1(C)ON(C2CCCCC2)[C@H]2c3nc4ccccc4n3C[C@H]21	19.5	1.3%	-2.6	9.9%	-27.4%	0.5	-3.5%
Cc1nc(CC(=O)N/N=C/c2ccc(OCC(=O)O)cc2)cs1	5.5	0.0%	1.4	-7.0%	1.9%	44.1	-22.7%
CN(CC(=O)Nc1ccc(F)c(F)c1F)C(=O)CCCc1nc2ccccc2c(=O)[nH]1	13.7	-2.0%	·	5.3%	0.9%	·	·
Cc1ccccc1CN1CCN(C(C)C(=O)NCc2ccccc2)CC1 (centres undefined)	-4.2	·	·	-0.6%	4.9%	-2.4	9.4%
CCN(CC)C(=O)C(Sc1ccccc1)c1ccccc1 (centres undefined)	-8.7	-3.4%	3.9	-3.4%	-3.8%	-0.9	18.2%
CC12CCC(O)CC1=CCC1C2CCC2(C)C1CCC21CCC(=O)O1 (centres undefined)	-19.8	-0.9%	4.7	-6.9%	?	-1.4	0.2%
CCCc1nn2c(-c3ccccc3)nnc2o1	·	1.5%	·	·	6.6%	-9.6	·
Cc1cccc(C)c1NC(=O)/C(C#N)=C/c1ccsc1	1.5	-1.6%	2.1	7.4%	?	8.6	1.2%
COC(=O)c1ccc2c(=O)[nH]c(CSc3nc(C)cs3)nc2c1	-3.2	·	1.0	-15.0%	-17.9%	-1.9	4.4%
CC(C)(C)OC(=O)NC(Cc1ccccc1)C(=O)NC(CSC1CCCCO1)C(=O)NN (centres undefined)	-2.9	1.5%	-3.7	-8.0%	2.4%	-1.6	8.2%
CCOC(=O)c1cc(C(=O)Nc2sc3c(c2C#N)CCCC3)nn1C	-1.9	9.9%	4.1	?	-13.6%	9.5	35.5µM*
Cc1nnc(Sc2nc3c(c(=O)[nH]c(=O)n3C)n2Cc2ccccc2)s1	-19.5	0.7%	3.2	-4.0%	8.6%	-2.1	10.2%
O=C(c1ccc(S(=O)(=O)N2CCCCC2)cc1)N1CCN=C1SCc1cccnc1	-14.8	1.0%	1.2	3.1%	12.6%	-0.4	0.2%
O=C(O)CCC(=O)NNC(=O)COc1cccc(Cl)c1	-9.3	·	1.0	1.7%	19.2%[15.4 µM]	3.5	5.8%
O=C(OCC(=O)N1CCN(C(=O)c2ccco2)CC1)c1ccccc1OCc1ccc(Cl)cc1	6.4	-6.0%	1.2	-13.1%	-57.5%[inhibitor]	3.3	-1.5%
COC(=O)/C=c1\[nH]c2nnc(C)n2c1=O	2.2	·	3.9	4.3%	17.4%	6.3	-2.0%
Nc1nc2n(n1)C(c1ccco1)CC(c1ccc(Cl)cc1Cl)N2 (centres undefined)	-2.8	-4.4%	3.0	-17.5%	-12.7%	24.5	4.8%
CN(CC(=O)Nc1ccccc1C(=O)NC1CC1)Cc1ccc(Cl)cc1	-13.1	-0.8%	·	0.2%	10.7%	0.6	·
CNS(=O)(=O)c1cn(CC(=O)NCc2ccc(OC)cc2)cc1S(=O)(=O)NC	-13.1	·	-2.9	-2.2%	-0.9%	2.2	1.9%
COc1ccc(CCn2c(=N)c(S(=O)(=O)c3ccc(Cl)cc3)cc3c(=O)n4ccccc4nc32)cc1	11.3	-14.7%	·	-8.8%	35.6%	-14.2	?
COc1ccccc1OCCNC1CCCC1	17.0	-0.5%	2.0	3.2%	20.0%	11.1	1.9%
CN1/C(=C\C(=O)CSc2ncn[nH]2)C(C)(C)c2ccccc21	-31.2	-7.0%	3.7	-9.0%	16.5%	-11.2	5.5%
CCCCCC(O)CCc1n[nH]c(=S)n1-c1ccccc1 (centres undefined)	2.9	-1.2%	-0.2	6.3%	-3.4%	-3.7	-5.1%
Cc1cccc(-c2cc3nc(C)cc(C)n3n2)c1	-3.2	·	3.1	-6.9%	2.9%[15.4 µM]	-4.6	0.4%
Cc1nc(=O)c(-c2ccccc2)c(C)n1-c1ccccc1O	8.5	-0.9%	1.6	5.1%	?	-0.2	14.1%
Cc1ccc(-n2c(=O)[nH]cc(C(=O)N3CCc4ccccc43)c2=O)cc1	-5.8	0.5%	-0.4	-3.6%	-24.7%	3.5	22.0%
CSc1ccc(NC(=O)Nc2ccccc2C(N)=O)cc1	2.0	-23.4%	0.7	3.0%	-0.4%	·	-16.7%
COc1ccc(C(=O)Nc2cc(Cl)ccc2N2CCOCC2)cc1S(=O)(=O)N1CCOCC1	2.2	0.7%	·	15.6%	-5.7%[15.4 µM]	0.2	·
CCCCCC(=O)Nc1cccc(C2=NOC3(C2)C[C@@H](C(N)=O)N(C(=O)C2(C)CC2)C3)c1 (some centres undefined)	?	-1.9%	2.2	3.9%	16.1%	·	12.9%
N#C/C(=C\c1ccc(OC(=O)c2cccs2)cc1)c1nc2ccccc2[nH]1	1.5	28.2µM*	15.4	11.8%	14.9%	-1.7	-14.9%
CC(C)(C)C1CCc2c(sc(NC(=O)c3cccs3)c2C(=O)N2CCCCC2)C1 (centres undefined)	-1.9	?	0.2	-13.3%	17.4%	-6.1	5.8%
N=C1S/C(=C\c2cccc3ccccc23)C(=O)N1c1ccc(F)cc1	0.7	0.9%	2.4	22.9%	0.0%	0.9	0.6%
COc1cc(SC)ccc1C(=O)N1CCN(Cc2ccc3c(c2)OCO3)CC1	3.6	-3.6%	-5.1	-3.1%	-1.2%	·	16.8%
CCCCCCc1nc2ccccc2c(=O)n1N	11.0	-17.6%	-1.2	-6.3%	0.0%	3.9	4.5%
CC(C)Cn1c(SCC(=O)Nc2ccc(Cl)cc2F)nc(O)cc1=O	·	-2.1%	·	-3.1%	-0.1%[15.4 µM]	-14.2	·
C=C(C)c1cccc(C(C)(C)NC(=O)Nc2ccc3[nH]c(=O)[nH]c3c2)c1	-5.9	-1.3%	0.5	4.3%	-27.7%	-1.6	3.8%
Cc1ccc(-c2nnc(-c3ccccc3)c(-c3ccccc3)n2)cc1	-2.9	0.6%	1.9	-17.5%	7.6%	-20.7	-26.5%
c1ccc(CSc2nnc(-c3cccnc3)o2)cc1	9.1	-1.9%	0.0	-2.2%	?	-6.4	-3.5%
COC(=O)c1cccc(NC(=S)NCc2ccc(Cl)cc2)c1	5.8	0.1%	1.0	4.2%	-46.7%[inhibitor]	0.9	19.5%
COC(=O)[C@@]12CCCN1[C@H](c1ccc(-c3cccc(Cl)c3)cc1)[C@H]1C(=O)N(C)C(=O)[C@H]12	-1.2	0.1%	·	-3.4%	-4.5%	-7.0	·
